Vif A3G = HIV-1 Vif–A3G interaction blockers – biochemical, TR-FRET, GST-Vif 1-94, biotin-A3G peptide, dose response retest, primary screen (AID 1117319); inhibition, %; hits with a dose series show IC50 in µM; TR-FRET GST-Vif / biotin-A3G peptide binding; higher % means a stronger effect; test concentration not given here; strong numbers were not always called active; 0.57% of 260,000 active;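 active = above the screen mean plus three standard deviations and confirmed in dose response; inconclusive = results disagree or hit not tested in dose response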;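 also: Vif residues 1-94 fused to GST binding biotinylated APOBEC3G peptide 110-148; 0% = full assay without inhibitor and 100% = GST in place of GST-Vif; retest series ran down from 100 µM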
HNF4A DNA FP = change in binding of human HNF4 alpha to DNA. P41235. HNF4a-FITC DNA binding, fluorescence polarization, 1 h. activity change, % at 10 µM. 0.3% of 360,000 active. AID 1224865; in the data active = activity change above about 30%, passing the limit was not always enough;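 also: controls were the assay level and a saturating level of protein; the project sought stronger binding though the title names inhibitors; some compounds called inactive have numbers as strong as hits; positive values seem to mean higher polarization but the record does not say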
RanGTP-Imp inh = disruptors of Ran-importin-beta complex formation – biochemical, FRET, CFP-Ran, YFP-importin-beta, homogeneous, primary screen; 1.1% of 300,000 active; AID 2216; inhibition, % (test concentration not listed); cell-free CFP-Ran/YFP-importin-beta FRET ratio;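 active = most replicates above 15%; inconclusive = exactly half above 15%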;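 also: 0% = DMSO wells and 100% = Ran loaded with GDP instead of GTP; wells of about 40 µL received 100 nL stock; the first replicate is given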
UCH37 inh = blocks the human deubiquitinase UCH37 | Q9Y5K5 | purified proteasome/UCH37, Ub-AMC cleavage fluorescence | inhibition, % (concentration not given with the values) | 0.33% of 330,000 active | AID 588478;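 active = mean of two replicates above 20%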;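 also: 0% = compound-free wells with enzyme and 100% = wells lacking proteasome; stock transfer was 100 nL into about 20 µL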
Target sequence (Q9Y5K5 whole entry, looked up): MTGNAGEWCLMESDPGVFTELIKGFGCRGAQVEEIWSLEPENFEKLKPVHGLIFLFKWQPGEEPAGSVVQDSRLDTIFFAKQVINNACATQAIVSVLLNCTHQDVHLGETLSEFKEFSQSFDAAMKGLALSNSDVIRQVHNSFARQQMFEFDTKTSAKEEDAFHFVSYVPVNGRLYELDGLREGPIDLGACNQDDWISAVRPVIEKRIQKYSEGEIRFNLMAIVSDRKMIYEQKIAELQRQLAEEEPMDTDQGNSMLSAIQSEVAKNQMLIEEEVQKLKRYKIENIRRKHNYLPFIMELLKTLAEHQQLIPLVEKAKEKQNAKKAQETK
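Test system – human UCH37 enzyme supplied as purified proteasome complex · Incubation – 30 min preincubation with enzyme, 25 min cleavage at room temperature · Detection – AMC fluorescence from Ub-AMC cleavage, excitation 355 nm, emission 460 nm · Benchmarks – no-proteasome wells (full inhibition) and compound-free wells (no inhibition)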
Ecoli growth = inhibitors of Escherichia coli growth; OD600, 23 h; hits give low values; 0.21% of 330,000 active; OD600 absorbance (no concentration beside the values);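 active = OD600 absorbance below the run mean of sample wells minus 3.6 SD, in any replicate, cut at about 0.56 in these data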;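 also: stock transfer was 300 nL into about 60 µL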
FGF22 binding = binders of recombinant human FGF22 by thermal shift; Q9HCT0; SYPRO orange fluorescence; percent of sucrose octasulfate shift, DMSO zero; calls only at 9.99 µM; 1.5% of 340,000 active;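 active = melting point raised past a set limit in the mean and every replicate; inconclusive = no clear call; three in four hits are not shown here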
Target sequence (Q9HCT0 whole entry, looked up): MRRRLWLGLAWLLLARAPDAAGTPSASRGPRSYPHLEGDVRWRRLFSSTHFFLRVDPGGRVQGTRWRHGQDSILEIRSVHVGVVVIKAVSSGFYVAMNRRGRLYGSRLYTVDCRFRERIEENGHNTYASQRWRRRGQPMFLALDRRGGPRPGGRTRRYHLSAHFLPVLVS
AF4-AF9 inh = inhibitors of human MLL-AF4/AF9 interaction. P42568. AlphaScreen, biotin-AF4 peptide binding to FLAG-AF9. inhibition, % at 10 µM. 0.47% of 350,000 active. AID 651704;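 active = every replicate reaching a set inhibition limit, whatever the replicate mean, cut at about 25% in these data; inconclusive = mean inhibition reaches that limit but some replicates miss it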;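 also: 0% = plate neutral control median and 100% = total signal loss; the record names both 10 and 1 µM as test concentration; the first replicate is given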
Target sequence (P42568 whole entry, looked up): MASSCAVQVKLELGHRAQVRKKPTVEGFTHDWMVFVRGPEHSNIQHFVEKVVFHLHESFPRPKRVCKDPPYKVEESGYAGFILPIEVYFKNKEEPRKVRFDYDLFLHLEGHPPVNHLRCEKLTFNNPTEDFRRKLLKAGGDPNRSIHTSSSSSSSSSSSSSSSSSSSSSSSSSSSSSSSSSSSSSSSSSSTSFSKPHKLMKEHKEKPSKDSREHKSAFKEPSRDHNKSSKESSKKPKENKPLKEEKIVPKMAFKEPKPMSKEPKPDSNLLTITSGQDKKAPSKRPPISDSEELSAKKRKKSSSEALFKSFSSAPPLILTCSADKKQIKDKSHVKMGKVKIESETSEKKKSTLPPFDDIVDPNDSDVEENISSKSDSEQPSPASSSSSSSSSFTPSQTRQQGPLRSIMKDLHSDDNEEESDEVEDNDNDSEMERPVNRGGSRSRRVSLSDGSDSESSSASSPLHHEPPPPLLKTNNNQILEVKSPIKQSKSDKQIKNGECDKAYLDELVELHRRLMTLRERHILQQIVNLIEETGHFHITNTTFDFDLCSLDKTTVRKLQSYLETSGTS
* hit, by the source's call; i = inactive; ? = inconclusive; · = not tested or not shown; & = joins results of further samples. An excerpt; the hit share may differ from the screen's.

Vif A3G	HNF4A DNA FP	RanGTP-Imp inh	UCH37 inh	Ecoli growth	FGF22 binding	AF4-AF9 inh	structure
69%	-0.7	-3.5	0.7	0.7	·	·	CCCCC(=O)NCCNC(=O)c1cc(OCC(F)(F)F)ccc1OCC(F)(F)F
6%	-0.9	-2.8	3.8	0.65	i	0.0	COc1ccc(N2CCN(S(=O)(=O)CCNS(=O)(=O)c3ccccc3)CC2)cc1
3%	3.2	5.2	2.3	0.74	i	0.8	CC(=O)N/C(=C\c1ccccc1)C(=O)OCc1ccccc1
·	-5.7	-11	·	·	i	9.7	C/C(=N\Nc1nc(Nc2ccccc2)nc(N2CCOCC2)n1)c1cccs1
3%	-0.1	-1.5	2.9	0.78	·	·	COC(=O)C1=C(C)N(C)C(C)=C(C(=O)OC)C1c1ccccc1C
5%	1.6	4.1	4.4	0.69	·	·	CCOC(=O)c1ccc(NC(=O)CCc2nc(-c3ccc(Cl)cc3)no2)cc1
·	0.1	-1.2	-1.3	0.71	i	-3.8	COc1cccc(CNC(=O)c2ccc(NC3=NC4CS(=O)(=O)CC4S3)cc2)c1 (centres undefined)
19%	-6.0	-5.8	·	·	i	1.9	CCOC(=O)c1ccc(N/N=C/c2cc(Br)cc([N+](=O)[O-])c2O)cc1
-1%	0.2	1.1	6.6	0.64	i	?	CN1CCN(c2ccc(S(=O)(=O)N3CCCCC3)cc2NC(=O)/C=C/c2ccc(Cl)c([N+](=O)[O-])c2)CC1
-1%	0.3	6.3	·	·	i	0.7	COc1cc(/C=N\NC(=O)OC(C)(C)C)ccc1OC(=O)c1ccco1
5%	-3.4	4.1	1.3	0.63	i	-2.4	Cc1ccc(S(=O)(=O)N(CC(=O)O)Cc2ccccc2)cc1
25%	-3.6	1.8	·	·	i	-0.7	Cc1ccc(/C=N/NC(=O)c2nnn(-c3nonc3N)c2CSc2ccc(Cl)cc2)cc1
18%	-4.7	-0.7	6.5	0.7	i	0.7	Cc1cccc(NC(=O)CSc2ccc(C(N)=O)cc2[N+](=O)[O-])c1C
-1%	1.1	4.1	2.3	0.7	i	-0.7	O=C1CC2(CCCC2)CC(=O)N1c1ccccc1
·	-1.9	4.1	5.9	0.67	i	-3.2	Cc1cc(C)n(-c2nc3ccccc3n3c(C)nnc23)n1
5%	0.9	4.9	·	·	·	·	O=C(Cc1n[nH]c(=O)[nH]c1=O)N/N=C/c1cccc(O)c1
-3%	-0.7	3.1	1.3	0.71	·	·	CSc1nc(C)cc(C)c1C#N
·	-3.5	2.8	-0.4	0.75	i	4.3	Cc1ccccc1CN(CC(=O)Nc1cccc([N+](=O)[O-])c1)S(=O)(=O)c1ccc(Cl)cc1
?	1.3	8.6	2.5	0.69	i	0.7	COc1ccc(S(=O)(=O)N2CCOCC2)cc1NC(=O)CSc1nnc(C2CC2)n1N
·	3.4	4.3	1.7	0.69	i	-1.8	Cc1nc(NC2CCCCC2)c2nnn(Cc3ccccc3Cl)c2n1
-16%	-1.9	-1.8	1.5	0.73	i	0.9	Clc1ccc(OCc2nnc(-c3ccccc3Br)o2)c(Cl)c1
?	2.8	1.9	8.2	0.72	·	·	Cc1ccc(S(=O)(=O)c2c(C)cc(C)nc2Oc2cccc(C)c2C)cc1
·	4.1	-1.7	4.1	0.74	i	-0.4	COc1ccc(-c2ccc(-c3nc4c(c(=O)[nH]c(=O)n4Cc4ccccc4)n3C)o2)c([N+](=O)[O-])c1
8%	3.0	?	1.9	0.78	·	·	Cc1ccnc(SCC(=O)Nc2oc(-c3ccccc3)c(-c3ccccc3)c2C#N)n1

Complete entries from above:
COc1ccc(-c2ccc(-c3nc4c(c(=O)[nH]c(=O)n4Cc4ccccc4)n3C)o2)c([N+](=O)[O-])c1 is entered as Vif A3G = ·; HNF4A DNA FP = 4.1; RanGTP-Imp inh = -1.7; UCH37 inh = 4.1; Ecoli growth = 0.74; FGF22 binding = i; AF4-AF9 inh = -0.4
Cc1ccc(/C=N/NC(=O)c2nnn(-c3nonc3N)c2CSc2ccc(Cl)cc2)cc1 is entered as Vif A3G = 25%; HNF4A DNA FP = -3.6; RanGTP-Imp inh = 1.8; UCH37 inh = ·; Ecoli growth = ·; FGF22 binding = i; AF4-AF9 inh = -0.7
O=C1CC2(CCCC2)CC(=O)N1c1ccccc1 is entered as Vif A3G = -1%; HNF4A DNA FP = 1.1; RanGTP-Imp inh = 4.1; UCH37 inh = 2.3; Ecoli growth = 0.7; FGF22 binding = i; AF4-AF9 inh = -0.7

The list goes on.
Vif A3G	HNF4A DNA FP	RanGTP-Imp inh	UCH37 inh	Ecoli growth	FGF22 binding	AF4-AF9 inh	structure
·	2.7	·	3.5	0.73	i	6.4&17	C[C@@H]1CN([C@H](C)CO)C(=O)Cc2cc(NC(=O)Nc3ccccc3)ccc2O[C@@H]1CN(C)Cc1ccc2c(c1)OCO2
17%	2.1	0.6	1.8	0.67	i	-2.0	Cc1cccc(NC(=O)CCC(=O)OCC(=O)c2ccc(Oc3ccc([N+](=O)[O-])cc3)cc2)c1
·	-2.8	·	·	·	i	0.2	Cn1nc(C(C)(C)C)cc1C(=O)N1CCCCC1c1cc(C(=O)NCc2ccc(F)cc2)no1 (centres undefined)
0%	-1.2	-4.3	2.9	0.68	i	-7.6	Cn1c(CNC(=O)c2ccco2)nnc1SCC(=O)c1ccccc1
·	1.6	·	·	·	i	-4.5	CC1(C(=O)O)CCCN1C(=O)c1cccc(OC(F)(F)F)c1 (centres undefined)
·	-0.6	1.3	3.7	0.66	·	1.3	CC(=O)c1ccc(N=Nc2c(C)[nH]n(-c3ccccc3)c2=O)cc1
3%	3.0	·	·	·	i	7.9	COc1ccccc1C#CC1=CC(=O)CC(C)(C)C1
·	0.4	4.5	·	·	i	-1.8	Cc1cccc(NC(=O)COC(=O)Cc2cccc(C(F)(F)F)c2)c1C
11%	-3.2	?	2.8	0.68	i	-3.2	O=c1[nH]c(-c2ccccc2F)nc2c1sc(=S)n2Cc1ccccc1
4%	4.9	?	0.4	0.67	i	0.9	Cc1c(Cl)cccc1NS(=O)(=O)c1c(C(=O)N2CCOCC2)c(C)n(C)c1C
11%	1.1	-1.5	1.7	0.64	i	-1.9	Nn1c(SCc2cccc(F)c2)nnc1-c1cccnc1
-11%	3.5	·	0.2	0.69	i	0.4	Cc1ccc(NC(=O)CN2C(=O)NC(C)(C3CC3)C2=O)cc1S(=O)(=O)N1CCCCC1 (centres undefined)
1%	-2.8	2.6	-0.4	0.69	i	3.2	O=C(CNC1CCCCC1)NN=C(c1ccccc1)c1ccccc1
-2%	1.6	-4.1	1.7	0.75	·	·	COC(=O)c1sc(S(=O)(=O)N2CCN(c3ccc(OC)cc3)CC2)c(C(=O)OC)c1C
·	5.3	0.4	-37	0.73	·	·	COc1cc(-c2nc(C(=O)NC3CCN(Cc4ccccc4)CC3)cc3c2[nH]c2ccccc23)cc(OC)c1OC
15%	-2.1	-3.8	4.2	0.66	i	-2.0	CN1CCN(S(=O)(=O)c2ccc(N3CCN(C(=O)c4ccccc4)CC3)nc2)CC1
·	-3.1	·	-1.6	0.69	i	1.4	NCCC1CCCC(CCN)N1 (centres undefined)
·	2.1	-7.8	3.6	·	i	-0.8	CC1(C)CCC/C(=C\c2ccccc2)C1=O
27%&-6%	5.2	-2.9	1.0	0.79	·	·	CCOC(=O)c1sc(NC(=O)CSc2nnc(-c3ccco3)o2)c(C(=O)OCC)c1C
7%	1.1	-16	-0.4	0.69	i	4.4	Cc1nc(C(=O)Nc2ccc(Cl)cc2)sc1C1(C)CC(c2ccccc2)=NO1 (centres undefined)
1%	3.3	-0.6	1.0	0.72	·	·	C=CCn1c(SCC(=O)NCC(=O)OCC)nnc1-c1cccc(OC)c1
·	-1.5	·	·	·	i	-0.2	Cc1cc2nc(-c3ccc(F)cc3)c(Cc3ccsc3)n2c(C)c1Br
-4%	1.7	3.6	4.5	0.68	i	0.0	Cc1csc(NC(=O)c2sccc2C)n1
-4%	1.6	3.1	2.0	0.75	i	1.4	CN1C(=O)C(C)(C)c2cc(S(=O)(=O)N3CCCC3C(=O)NCc3ccccc3Cl)ccc21 (centres undefined)
-4%	-3.2	·	3.6	0.66	i	3.3	CCN(CC)S(=O)(=O)c1ccc(NC(=O)CCN2C(=O)C3CC=CCC3C2=O)cc1 (centres undefined)
·	-1.4	4.2	-0.6	0.67	·	0.7	Cc1ccc(C)c(Cn2nnc3c(=O)[nH]c(C4CCCN(S(=O)(=O)Cc5ccccc5)C4)nc32)c1 (centres undefined)
-1%	-0.5	·	-0.4	0.69	i	1.5	CN(C)S(=O)(=O)c1ccc(Cl)c(NC(=O)C2CCN(S(=O)(=O)c3cccs3)CC2)c1
2%	-4.5	1.2	0.3	0.68	i	-0.5	O=C(OCc1ccc([N+](=O)[O-])cc1)C1CC(=O)N(CCc2ccccc2)C1 (centres undefined)
2%	0.8	-4.0	3.6	0.79	·	·	CCN(CC(=O)NC)S(=O)(=O)c1ccc(C)cc1
0%	1.8	4.1	0.9	0.68	i	-4.3	COc1ccccc1CCNC(=O)C1CCN(C(=O)/C=C/c2ccccc2)CC1
-5%	3.5	0.6	-1.2	0.67	i	1.3	CC(=O)C1=C(O)C(=O)N(c2ccccn2)C1c1ccc(C)cc1 (centres undefined)
1%&-4%	3.8	5.1	1.4	0.72	i	6.7	CCCOc1ccc([C@@H]2C3CN(C(=O)OCC)CC=C3C(C#N)=C(N)C2(C#N)C#N)cc1OC (some centres undefined)
·	-1.1	·	·	·	i	-2.9	COc1ccc(C(O)c2nc(-c3cccc(CO)c3)cs2)cc1 (centres undefined)
3%	-0.7	?	5.9	0.68	·	·	COc1ccc(OCCCC(=O)NC(C)c2ccccc2)cc1 (centres undefined)
·	4.7	5.3	3.5	0.7	i	-3.5	CC1(C)CC(=O)/C(=C(\O)c2ccccc2)C(=NCCc2ccccc2)C1
·	1.5	0.5	4.3	0.71	i	-1.9	Cc1onc(-c2ccccc2)c1C(=O)NCc1ccccc1F
-4%	-3.6	-1.2	-0.3	0.71	·	·	O=P(Cc1cccc[n+]1[O-])(c1ccccc1)c1ccccc1
-5%	1.6	5.2	·	·	·	·	COc1ccc(/C=N/NC(=O)c2[nH]ncc2Br)c(OC)c1
-5%	-4.1	-1.4	5.5	0.7	i	6.2	N#Cc1ccccc1Cn1c(=O)n(Cc2ccc(C(=O)NCc3ccco3)cc2)c(=O)c2sccc21
-3%	-0.3	·	2.9	0.64	i	-3.4	C=CCn1c(C)nnc1SCC(=O)c1c(N)n(C2CC2)c(=O)[nH]c1=O
0%	0.2	·	-0.1	0.68	i	-2.7	O=C(NOCc1ccccc1)OCc1ccccc1
-3%	1.2	4.3	0.6	0.67	i	7.9	O=C(O)CC1C(=O)OCN1C(=O)OCc1ccccc1 (centres undefined)
-2%	0.2	·	-0.7	0.7	i	-1.1	CSCCC(NC(=O)c1ccccc1Br)C(=O)N1CCN(C(C)=O)CC1 (centres undefined)
·	0.7	·	1.8	·	i	3.9	C[C@@H](OC(=O)c1[nH]cnc1C(=O)NCc1ccc(CNC(=O)OC(C)(C)C)cc1)c1ccccc1
·	0.9	-5.8	-0.2	0.7	i	8.2	COC(=O)CCCC1=CC2=C(c3ccccc3)C(=O)C(C)(OC(=O)C3CCCC3)C(=O)C2=CN1c1ccccc1 (centres undefined)
·	-60	·	·	·	i	-2.4	Cc1cc(Br)cn2c(Cc3ccsc3)c(C(C)(C)C)nc12
-13%	7.4	2.2	-2.5	0.68	·	·	COc1ccc(CC(=O)Nc2ccc(-c3cn4ccc(C)cc4n3)cc2)cc1

Source: PubChem
